Screening data as filed in PubChem.
HCMV NEC inh: inhibitors of HCMV UL50-UL53 interaction, biochemical, HTRF; HCMV UL50-UL53 nuclear egress complex (human cytomegalovirus); normalized percent inhibition; inhibition, % (concentration not given with the values); 190,000 compounds, 0.15% hits; AID 1918969, 2023;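 active = both replicates at 50% or more, plus weaker picks with an unusually low signal ratio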;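 note: stock transfer was 100 nL into about 20 µL; 0% = negative control wells and 100% = wells with untagged competitor protein; inactives centre near -12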
The depositor's hits bear a star; & = joins results of further samples. This is a subset (hit frequency here may not be typical).

How did CCC(=O)NC(C)c1nc2ccccc2n1Cc1ccccc1C (stereo not drawn) do in these assays?
HCMV NEC inh: -9

How did BrCC12CC3CC(CC(C3)C1)C2 do in these assays?
HCMV NEC inh: 7

What do the screens show for `O=C(O)c1cccc(N2C(=O)C3CC=CCC3C2=O)c1` (stereo not drawn)?
HCMV NEC inh: -10

What do the screens show for `Cc1onc(-c2c(F)cccc2Cl)c1C(=O)N[C@@H]1C(=O)N2C(C(=O)O)C(C)(C)S[C@H]12` (stereo partly drawn)?
HCMV NEC inh: -14

Results for CCN(CC)S(=O)(=O)c1ccc2nc(NC(=O)c3cccs3)sc2c1 ?
HCMV NEC inh: -9

How did Cc1ccc(/C=C/C(=O)CCC(=O)O)cc1 do in these assays?
HCMV NEC inh: -5

How did COc1cc(C2Oc3ccc(C4Oc5cc(O)cc(O)c5C(=O)C4O)cc3OC2CO)ccc1O (stereo not drawn) do in these assays?
HCMV NEC inh: -20

How did O=C(Nc1cccc(-c2csc(Nc3ccc(Cl)cc3)n2)c1)c1cccc(C(F)(F)F)c1 do in these assays?
HCMV NEC inh: -6

What do the screens show for `O=c1oc2ccccc2cc1S(=O)(=O)c1ccccc1`?
HCMV NEC inh: -25

Results for CCN1CCN(CCC(=O)Nc2sc3c(c2C#N)CCCCC3)CC1 ?
HCMV NEC inh: -1

What do the screens show for `Cc1[nH]n(C(N)=S)c(=O)c1C(c1ccccc1)C(C#N)C#N` (stereo not drawn)?
HCMV NEC inh: 4

Results for COc1ccc(NC(=O)CSc2nc3c(cc2C#N)C(=O)CCC3)cc1 ?
HCMV NEC inh: -8

How did CCCCCCCC/C=C\C/C=C\C/C=C\CCCC(=O)O do in these assays?
HCMV NEC inh: -12&-12&-19

How did COc1ccccc1N1C(=O)C2C3C=CC(C3)C2C1=O (stereo not drawn) do in these assays?
HCMV NEC inh: -16

What do the screens show for `CC(C)Oc1nc(-c2ccccc2)nc(-c2ccccc2)c1C#N`?
HCMV NEC inh: -12

How did COc1cc2c(cc1C(F)(F)F)N(C(=O)Nc1cc(F)cc(-c3cccnc3)c1)CC2 do in these assays?
HCMV NEC inh: -4

What do the screens show for `COC1C(OC(N)=O)C(O)C(Oc2ccc3c(O)c(NC(=O)c4ccc(O)c(CC=C(C)C)c4)c(=O)oc3c2C)OC1(C)C` (stereo not drawn)?
HCMV NEC inh: 10&-22

How did C[C@]12C=CC(=O)N[C@@H]1CC[C@@H]1[C@H]2CC[C@]2(C)C(C(=O)Nc3cc(C(F)(F)F)ccc3C(F)(F)F)CC[C@@H]12 (stereo partly drawn) do in these assays?
HCMV NEC inh: -14

How did OCC1OC(n2cnc3c(NC4CCCC4)nc(Cl)nc32)C(O)C1O (stereo not drawn) do in these assays?
HCMV NEC inh: -25

Results for N#C/C(=N\O)c1nc(-c2ccc(F)cc2)cs1 ?
HCMV NEC inh: -67

How did Cc1nn(C)cc1-c1ccnc(NC2CCOC(C)(C)C2)n1 (stereo not drawn) do in these assays?
HCMV NEC inh: 44&44

What do the screens show for `O=C(Nc1cccc(-c2csc(Nc3ccccc3)n2)c1)c1ccccc1`?
HCMV NEC inh: 9

What do the screens show for `FC(F)(F)C1CCN(c2ncccc2NC(=S)Nc2ccc(Cl)cc2)CC1`?
HCMV NEC inh: -7

What do the screens show for `CCCCCCCCCCCCCCCCC(=O)NCCO`?
HCMV NEC inh: -12&-12

Results for O=C(O)c1cc(NS(=O)(=O)c2ccc3ccccc3c2)ccc1O ?
HCMV NEC inh: -20&-38

What do the screens show for `C/C(=N\O)c1ccc2c3ccccc3n(C)c2c1`?
HCMV NEC inh: -6

Results for COc1cccc(C(=O)SC2=NCCS2)c1 ?
HCMV NEC inh: 3

Results for CC(c1ccccc1)N1CC(C(=O)N2CCN(c3ccc(F)cc3)CC2)CC1=O (stereo not drawn) ?
HCMV NEC inh: -4

Results for CC(C(=O)O)c1ccc(N)cc1 (stereo not drawn) ?
HCMV NEC inh: -4

What do the screens show for `O=C(NCc1ccccc1)c1csc(Nc2ccncn2)n1`?
HCMV NEC inh: 6

How did COc1ccc(-n2cc(-c3ccccc3)c3c(SC)ncnc32)cc1 do in these assays?
HCMV NEC inh: 9

What do the screens show for `COc1ccc(S(=O)(=O)CC(SC#N)c2ccccc2)cc1` (stereo not drawn)?
HCMV NEC inh: -6

Results for C[C@H]([C@@H](O)c1ccc(O)cc1)N1CCC(Cc2ccccc2)CC1 (racemic) ?
HCMV NEC inh: 0

What do the screens show for `N#Cc1ccsc1NC(=O)c1cccs1`?
HCMV NEC inh: -15

What do the screens show for `CCc1cc(C(=O)OC)c(NC(=O)/C=C/C(=O)O)s1`?
HCMV NEC inh: 0

What do the screens show for `CC(=O)Nc1sc2c(c1C(N)=O)CC(C)CC2` (stereo not drawn)?
HCMV NEC inh: -7

Results for COc1ccc(/C=C2\SC(=O)NC2=O)cc1 ?
HCMV NEC inh: -32

What do the screens show for `O=C(Nc1cccc(-c2nc3ccccc3s2)c1)C1=COCCO1`?
HCMV NEC inh: 16&1

How did O=c1c2ccccc2c2ccccc2c(=O)n1Cc1ccco1 do in these assays?
HCMV NEC inh: -6

What do the screens show for `c1cncc(CNc2ncnc3sc4c(c23)CCCC4)c1`?
HCMV NEC inh: -3

Results for Cc1ccc2c(=O)n(C3CC(C)(C)NC(C)(C)C3)cnc2c1C ?
HCMV NEC inh: -22

How did O=c1cc(CCn2cccn2)nc(-c2ccc(CN3CCC[C@@H](O)C3)cc2)[nH]1 do in these assays?
HCMV NEC inh: -16

How did NC(=O)c1noc(C(CCCC2CCCCC2)CC(=O)NO)n1 (stereo not drawn) do in these assays?
HCMV NEC inh: 0

Results for O=C(c1c[nH]c2ccccc12)N1CCOCC1 ?
HCMV NEC inh: -2

Results for O=C(CSc1nc2ccccc2s1)N1CCCC1 ?
HCMV NEC inh: 5

How did COc1ccc(Nc2ncn[nH]2)cc1 do in these assays?
HCMV NEC inh: -9

How did O=c1[nH]cnc2c1c(-c1ccccc1)cn2-c1ccc(F)cc1 do in these assays?
HCMV NEC inh: -16

What do the screens show for `Cc1ccc(/C=C2/SC(=S)N(CC(=O)Nc3nccs3)C2=O)cc1`?
HCMV NEC inh: 2

Results for CC#C[C@]1(O)CCC2C3CCC4=CC(=O)CCC4=C3C(c3ccc(N(C)C)cc3)C[C@@]21C (stereo partly drawn) ?
HCMV NEC inh: -56

How did Cc1ccc(C(C)C)c(OCC(O)CN2CCN(C)CC2)c1 (stereo not drawn) do in these assays?
HCMV NEC inh: -11

What do the screens show for `CCn1c(CCCNC(C)=O)nc2ccccc21`?
HCMV NEC inh: 5

What do the screens show for `O=C1Nc2ccc(S(=O)(=O)NCc3ccccn3)c3cccc1c23`?
HCMV NEC inh: -45

What do the screens show for `O=C(O)CCCN1C(=O)C2C3C=CC(C3)C2C1=O` (stereo not drawn)?
HCMV NEC inh: -7

Results for COc1ccc(/C=C/C(=O)Nc2nccs2)cc1OC ?
HCMV NEC inh: -23

How did CC(C)C(=O)Nc1nnc(SCC(=O)N2CCCc3ccccc32)s1 do in these assays?
HCMV NEC inh: -22

How did CCN1CCN(c2nnc(-c3ccccc3)c3ccccc23)CC1 do in these assays?
HCMV NEC inh: -2

Results for COc1cccc(OC)c1C(=O)Oc1cccc2ccc(C)nc12 ?
HCMV NEC inh: -8

What do the screens show for `O=C1O/C(=C/Br)CC[C@@H]1c1cccc2ccccc12`?
HCMV NEC inh: 4&4

Results for CCCC(=O)Oc1ccc(N(C(=O)CCC)S(=O)(=O)c2cccs2)cc1 ?
HCMV NEC inh: -14

How did O=C(/C=C/c1cccs1)NCCC1=CCCCC1 do in these assays?
HCMV NEC inh: -12

Results for COc1nc(C)cnc1NS(=O)(=O)c1cccnc1-c1ccc(-c2nnco2)cc1 ?
HCMV NEC inh: -12

Results for COc1ccc(S(=O)(=O)N2CCCc3ccccc32)cc1C(=O)O ?
HCMV NEC inh: 0

What do the screens show for `CCc1ccc(-c2nn(-c3ccccc3)cc2C#N)cc1`?
HCMV NEC inh: -23

What do the screens show for `CCCCCCCCCCCC(=O)c1nc2ncccc2o1`?
HCMV NEC inh: -16&-16

What do the screens show for `CC(C)(CO)C(O)C(=O)NCCC(=O)NCCSSCCNC(=O)CCNC(=O)C(O)C(C)(C)CO` (stereo not drawn)?
HCMV NEC inh: -76

How did CCOc1ccc(C(=O)Nc2sc3c(c2C(=O)NCc2cccnc2)CCCC3)cc1 do in these assays?
HCMV NEC inh: 6

Results for c1ccc(-c2nc(N3CCCC3)nc3ccccc23)cc1 ?
HCMV NEC inh: 0

How did CC(C)(C)c1csc(NC(=O)c2ccc(Br)o2)n1 do in these assays?
HCMV NEC inh: -6

How did CCCCC/C=C\C/C=C\C/C=C\CCCCCCC(=O)O do in these assays?
HCMV NEC inh: -19&-19&4

How did COc1ccc(C(=O)NC(C)C(c2cccs2)N2CCOCC2)c(OC)c1 (stereo not drawn) do in these assays?
HCMV NEC inh: -17

How did CC(CCCC(C)(C)O)CCNC(C1CC1)C1CC1 (stereo not drawn) do in these assays?
HCMV NEC inh: -14

Results for Clc1cccc2c1CN(C1=NCCN1)C2 ?
HCMV NEC inh: -4

What do the screens show for `COc1ccc(C(=O)Nc2ccc(N3CCOCC3)c(F)c2)cc1`?
HCMV NEC inh: 2

What do the screens show for `COc1cccc(N2C(=O)/C(=C/c3cccc(O)c3)SC2=S)c1`?
HCMV NEC inh: -6

Results for CS(=O)(=O)N1CC2CCCN2c2ccc(C(F)(F)F)cc21 (stereo not drawn) ?
HCMV NEC inh: -7

Results for NS(=O)(=O)c1ccc(C(=O)O)cc1 ?
HCMV NEC inh: -17

Results for O=C(O)c1ccccc1SC/C=C/c1ccccc1 ?
HCMV NEC inh: -30

What do the screens show for `COc1ccc(S(=O)(=O)N2CCNC(=O)CC2)cc1`?
HCMV NEC inh: 2

What do the screens show for `CC(C)(C)c1ccc(NC(=O)C2CCCCN2S(=O)(=O)c2ccccc2)cc1` (stereo not drawn)?
HCMV NEC inh: 4

How did CC1CCCCN1Cc1ccc(-c2nc(CCn3cccn3)cc(=O)[nH]2)cc1 (stereo not drawn) do in these assays?
HCMV NEC inh: -14

Of the compounds above, 2 have a tert-butyl group.
How did CC(C)(C)c1csc(NC(=O)c2ccc(Br)o2)n1 do in these assays?
HCMV NEC inh: -6

What do the screens show for `CC(C)(C)c1ccc(NC(=O)C2CCCCN2S(=O)(=O)c2ccccc2)cc1` (stereo not drawn)?
HCMV NEC inh: 4

The listing continues.
What do the screens show for `O=C(CSc1nccn1-c1ccc(F)cc1)Nc1ccc2c(c1)OCCO2`?
HCMV NEC inh: -13

What do the screens show for `O=C1CS(=O)CN1c1ccc(Br)cc1` (stereo not drawn)?
HCMV NEC inh: -7

How did NC1CCN(C2CCN(c3cccc(-c4ccccc4)c3)CC2)CC1 do in these assays?
HCMV NEC inh: -3

What do the screens show for `Cn1c(CCCNC(=O)c2cccs2)nc2ccccc21`?
HCMV NEC inh: -3

How did O=C1CC(c2ccc(Cl)cc2)Sc2nc3ccccc3n21 (stereo not drawn) do in these assays?
HCMV NEC inh: -1

What do the screens show for `CCOc1ccccc1C1C(C#N)=C(SCc2ccccc2)NC(=O)C1C#N` (stereo not drawn)?
HCMV NEC inh: -8

How did CCOc1cc(/C=C2\SC(=S)N(C(C(=O)O)C(C)C)C2=O)ccc1O (stereo not drawn) do in these assays?
HCMV NEC inh: -76

What do the screens show for `O=C(O)c1ccccc1-c1ccccc1C(=O)Nc1nccs1`?
HCMV NEC inh: -7

Results for COc1cc(S(=O)(=O)N2CCCCC2)ccc1F ?
HCMV NEC inh: 6

How did O=C(Cn1ccc(-c2cccnc2)n1)Nc1ccnn1Cc1cccs1 do in these assays?
HCMV NEC inh: 8

Results for CC(C)n1cnc2c(NCc3ccccc3)nc(NCc3ccccc3)nc21 ?
HCMV NEC inh: -11

What do the screens show for `Cc1ccccc1-c1cccc(C(=O)c2nccn2C)c1`?
HCMV NEC inh: -22

Results for O=C(O)c1ccc(S(=O)(=O)n2ncc3ccccc32)cc1 ?
HCMV NEC inh: -20

What do the screens show for `Cc1[nH]c2ccccc2c1C(Nc1ccccn1)c1ccccc1` (stereo not drawn)?
HCMV NEC inh: -11

Molecules above that contain a COOH group:
What do the screens show for `O=C(O)c1cccc(N2C(=O)C3CC=CCC3C2=O)c1` (stereo not drawn)?
HCMV NEC inh: -10

What do the screens show for `Cc1onc(-c2c(F)cccc2Cl)c1C(=O)N[C@@H]1C(=O)N2C(C(=O)O)C(C)(C)S[C@H]12` (stereo partly drawn)?
HCMV NEC inh: -14

How did Cc1ccc(/C=C/C(=O)CCC(=O)O)cc1 do in these assays?
HCMV NEC inh: -5

How did CCCCCCCC/C=C\C/C=C\C/C=C\CCCC(=O)O do in these assays?
HCMV NEC inh: -12&-12&-19

Results for O=C(O)c1cc(NS(=O)(=O)c2ccc3ccccc3c2)ccc1O ?
HCMV NEC inh: -20&-38

Results for CC(C(=O)O)c1ccc(N)cc1 (stereo not drawn) ?
HCMV NEC inh: -4

What do the screens show for `CCc1cc(C(=O)OC)c(NC(=O)/C=C/C(=O)O)s1`?
HCMV NEC inh: 0

What do the screens show for `O=C(O)CCCN1C(=O)C2C3C=CC(C3)C2C1=O` (stereo not drawn)?
HCMV NEC inh: -7

Results for COc1ccc(S(=O)(=O)N2CCCc3ccccc32)cc1C(=O)O ?
HCMV NEC inh: 0

How did CCCCC/C=C\C/C=C\C/C=C\CCCCCCC(=O)O do in these assays?
HCMV NEC inh: -19&-19&4

Results for NS(=O)(=O)c1ccc(C(=O)O)cc1 ?
HCMV NEC inh: -17

Results for O=C(O)c1ccccc1SC/C=C/c1ccccc1 ?
HCMV NEC inh: -30

How did CCOc1cc(/C=C2\SC(=S)N(C(C(=O)O)C(C)C)C2=O)ccc1O (stereo not drawn) do in these assays?
HCMV NEC inh: -76

What do the screens show for `O=C(O)c1ccccc1-c1ccccc1C(=O)Nc1nccs1`?
HCMV NEC inh: -7

Results for O=C(O)c1ccc(S(=O)(=O)n2ncc3ccccc32)cc1 ?
HCMV NEC inh: -20
